Source: PubChem BioAssay
NPR1 antag – Natriuretic polypeptide receptor (hNpr1) antagonism - Primary qHTS | 76,000 tested, 1.6% active | Potency, µM (top dose mostly 46.3 µM), inactives show at the highest dose activity change, negative = inhibition, most hits filed as inhibitors | HEK293 hNpr1 GloSensor cGMP, ANP-stimulated luminescence | Atrial natriuretic peptide receptor 1 (Homo sapiens), P16066; active = well fitted inhibition curve with a large enough effect; inconclusive = small, poorly fitted or top-dose-only effect; inactive = no such curve, though single readings can be large or run the other way;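 further: nearly all actives have a fitted effect of over 60% in size; nearly all hits also lower the signal before the agonist is added; a reference antagonist and vehicle were the controls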
Target sequence (P16066 whole entry, looked up): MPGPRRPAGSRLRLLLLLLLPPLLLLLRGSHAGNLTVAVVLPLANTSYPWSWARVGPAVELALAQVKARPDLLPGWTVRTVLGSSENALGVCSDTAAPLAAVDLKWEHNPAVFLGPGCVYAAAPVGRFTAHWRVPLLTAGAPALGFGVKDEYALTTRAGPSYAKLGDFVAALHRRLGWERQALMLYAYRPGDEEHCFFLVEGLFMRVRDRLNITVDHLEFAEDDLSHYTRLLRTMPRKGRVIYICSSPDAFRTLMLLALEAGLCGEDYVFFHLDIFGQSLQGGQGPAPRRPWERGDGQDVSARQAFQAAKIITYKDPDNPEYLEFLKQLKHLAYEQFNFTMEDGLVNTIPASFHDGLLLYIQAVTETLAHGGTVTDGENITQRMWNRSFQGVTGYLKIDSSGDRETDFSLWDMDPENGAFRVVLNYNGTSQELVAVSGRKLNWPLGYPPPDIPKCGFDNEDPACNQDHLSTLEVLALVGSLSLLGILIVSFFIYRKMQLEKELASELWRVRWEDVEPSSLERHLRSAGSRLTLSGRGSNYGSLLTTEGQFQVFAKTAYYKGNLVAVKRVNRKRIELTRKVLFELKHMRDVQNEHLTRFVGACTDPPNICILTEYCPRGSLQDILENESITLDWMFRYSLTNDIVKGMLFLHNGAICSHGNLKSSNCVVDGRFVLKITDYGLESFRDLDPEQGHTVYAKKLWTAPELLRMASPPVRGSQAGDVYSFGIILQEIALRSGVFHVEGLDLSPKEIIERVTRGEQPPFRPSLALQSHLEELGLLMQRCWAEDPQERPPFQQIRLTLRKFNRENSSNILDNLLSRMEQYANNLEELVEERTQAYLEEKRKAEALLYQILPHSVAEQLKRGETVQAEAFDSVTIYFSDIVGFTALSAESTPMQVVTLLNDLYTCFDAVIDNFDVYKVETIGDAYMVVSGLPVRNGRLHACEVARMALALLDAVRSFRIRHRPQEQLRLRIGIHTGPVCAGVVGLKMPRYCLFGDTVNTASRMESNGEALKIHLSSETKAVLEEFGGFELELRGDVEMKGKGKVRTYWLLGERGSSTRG
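HEK293 cells stably expressing human Npr1 and cGMP GloSensor pGS-40F, loaded 2 h with 2% GloSensor reagent, given compound 30 min at room temperature. Luminescence read before and 20 min after 0.1 nM hNppA.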
* hit, by the source's call; ? = inconclusive; & = joins results of further samples; [ ] = dose if it differs, or a comment. On the % scale 0 is the no-effect control and ±100 the full control effect; potency means the concentration at half of the fitted maximal effect. An excerpt; rates above refer to the full screens.

NPR1 antag	canonical_smiles
0.7%	CCn1ccc(C(=O)N2CCCC(CO)CCNC(=O)CC2)n1 (configuration not stated)
-25.7%	COc1cc(CN2CCN(c3ncnc4[nH]ccc34)CC2CCO)cc(OC)c1 (configuration not stated)
0.2%	Cc1nc(CN2CCN(CC3(O)CCNC3)CC2)cs1 (configuration not stated)
2.6%	COCCN1C(=O)c2cccn2CC1CNC(=O)c1ccc(Cc2c(C)noc2C)o1 (configuration not stated)
12.8%	CC(=O)c1cccc(NC(=O)O[C@@H]2CO[C@H]3[C@@H]2OC[C@@H]3Nc2nccc(-c3ccccc3)n2)c1
1.0%	CCn1cc(CN(C)C(=O)C2N(C(C)C)C(=O)C23CCCC3)c(C)n1 (configuration not stated)
5.3%	CCCc1noc(-c2cccn3c(CNC(=O)c4ccccc4C)nnc23)n1
-3.9%	O=C(c1ccc(Cl)s1)N1CCc2n[nH]c(=O)n2CC1
-1.3%	CN1CCN(c2nc3c(c(=O)[nH]2)CCN(Cc2cc(F)ccc2F)CC3)CC1
3.0%	COC[C@@H]1CN(C(=O)c2ccoc2C)C[C@H]1c1nc(C2CC2)no1
2.4%	O=C(CCc1cc(=O)[nH]o1)N[C@H](C1CCNCC1)C1CC(O)C1 (some centres not stated)
7.0%	O=C1NC(C(=O)NCCCn2cccn2)Cn2cccc21 (configuration not stated)
2.0%	CC(=O)N1CC(n2cc(C(=O)NCC3CC3)nn2)C1
25.1µM*	CC1(NC(=O)C2CC2)CN(Cc2nc(-c3cccc(F)c3)cs2)C1
-1.0%	CCOc1ccccc1NC(=O)N1CCCC(Cn2c(C3CC3)nc3cccnc32)C1 (configuration not stated)
8.8%[70.6 µM]	CC(C)c1noc([C@@H]2C[C@H](NS(=O)(=O)Cc3ccccc3)CN2C)n1
6.3%	Cc1cccc(NC(=O)Cn2c(N3CCN(c4ccccc4)CC3)nc(C)cc2=O)c1
-0.5%	Cc1ccc(N2CCN(C(=O)[C@@]34CCCC[C@H]3N(C)C(=O)CC4)CC2)cc1
?	Cc1nc(C)c(CN2CCOC[C@H](Oc3ccc(S(C)(=O)=O)cc3)C2)s1
-12.0%	CC(=O)Nc1ccc(C2(C(=O)N3CCN(c4ccccc4)CC3)CCCCC2)cc1
-8.4%[70.6 µM]	COc1cccc(CN2C[C@@H](F)[C@@H](OCc3nc4ncccc4[nH]3)C2)c1
-4.8%&0.0%	O=C(NC1CCCC1)N1CCC2(C1)C(=O)N(CCc1ccccc1)c1ccccc12 (configuration not stated)
-3.2%	O=C1CC(c2ccccc2)N(C(=O)CNS(=O)(=O)c2cccc3cccnc23)CCCCCN1 (configuration not stated)
-0.2%	CC(O)CCn1ccc2[nH]c(=O)c(C#N)cc2c1=O (configuration not stated)
-8.5%[70.6 µM]	COc1ccc(-c2cnc3n[nH]c(-c4ccccc4C)c3n2)cn1
-3.4%	c1ccc2c(c1)OCC(CCNc1ncncn1)O2 (configuration not stated)
4.5%	CCc1nc(-c2c3n(c(=O)n(CC(=O)Nc4ccc(C)c(F)c4)c2=O)CCCC3)no1
-3.6%	COCCn1c(Cn2nc3n(c2=O)CCCCC3)nnc1C1CC(N)C1 (configuration not stated)
0.0%	Cc1ncsc1C1N(C2CCN(C(=O)C3CCC3)CC2)C(=O)C12CCCC2 (configuration not stated)
-9.8%	O=C([C@@H]1C[C@H](F)CN1C(=O)c1cccc(C(F)(F)F)c1)N1CCCCC1
-1.5%	O=C1NCCCCCN(C(=O)C2CCC2)[C@@H]2C[C@@H](C(=O)N3CCc4ccccc4C3)C[C@H]12
-1.0%	CS(=O)(=O)N[C@@H]1[C@@H](NC(=O)c2cn3ccsc3n2)[C@H]2CCO[C@H]21
-6.2%	O=C(Nc1ccc([C@@H](O)[C@H]2COCC(=O)N2Cc2ccc(C(F)(F)F)cc2)cc1)C1CCCC1
-5.9%[70.6 µM]	Cc1ccccc1CN1Cc2nc(-c3ccccc3)ccc2OCC1=O
-1.5%[70.6 µM]	CC(=O)Nc1cccc(-c2csc(CN3CCCC(C)(NC(C)=O)C3)c2)c1 (configuration not stated)
3.2%	O=C1C(N2CCN(S(=O)(=O)Cc3ccc(Cl)cc3)CC2)CCN1Cc1cccnc1 (configuration not stated)
5.1%[70.6 µM]	Cc1ccccc1CN1C[C@@H]2C[C@H]1C(=O)N(C)c1ccccc1O2
-0.8%	Cc1nn(C)c(C)c1C(=O)N[C@@H]1CN(c2ncccn2)C[C@H]1CO
-14.7%	COCCNC(=O)[C@H]1C[C@H](Oc2ccccc2)CN1C(C)=O
-13.3%	COCCNC(=O)c1nc(-c2cccc(C(F)(F)F)c2)c2ccccn12

Shown comma-delimited: entries from further up.
compound,NPR1 antag
Cc1ccccc1CN1C[C@@H]2C[C@H]1C(=O)N(C)c1ccccc1O2,5.1%[70.6 µM]
Cc1nn(C)c(C)c1C(=O)N[C@@H]1CN(c2ncccn2)C[C@H]1CO,-0.8%

(cont.)
NPR1 antag	canonical_smiles
1.0%	O=C1NCCCCCCN(C(=O)c2ccoc2)[C@H]2C[C@H](c3nc(-c4cccnc4)no3)C[C@@H]12
-14.8%	Cc1noc(-c2nc(-c3ccc(Br)cc3)no2)n1
-0.9%	O=C(CCc1ccc2c(c1)CN(C(=O)C1CC1)CCO2)NC1CCS(=O)(=O)C1 (configuration not stated)
-6.9%	COc1ccc(NC(=O)N2CCC(Oc3ncccc3C(=O)N(C)C)C2)c(OC)c1 (configuration not stated)
0.3%	O=C1Nc2ccc(-c3ccc4c(c3)OCO4)cc2C(=O)N2CC[C@H](NC(=O)N3CCOCC3)[C@@H]12
?	CC(=O)N1CCNc2cc(Nc3ccc(F)cc3)ncc2C1
-12.5%	C[C@]1(CO)[C@H]2Cc3sc(NC(=O)c4ccc(F)cc4)nc3[C@@H](CC(=O)Nc3ccccc3)[C@]2(C)CC[C@H]1O
0.5%[70.6 µM]	CN1CCC(NC[C@H]2O[C@@H]3C[C@@H](CC(=O)N4CCOCC4)O[C@@H]3[C@@H]2O)CC1
28.8%	COc1cccc(CNC(=O)C2CN(c3ccc(F)cc3)C(=O)N2)c1 (configuration not stated)
-15.8%[70.6 µM]	O=C1COc2ccc(-c3cn[nH]c3)nc2CN1Cc1ccc(C(F)(F)F)cc1
-1.5%	CO[C@H]1C(=O)N(C(C)C)[C@H]1C1CCN(S(=O)(=O)c2cccnc2)CC1
10µM*	CCc1noc(CC2CCOC3(CCN(S(=O)(=O)c4ccc(C(C)C)cc4)CC3)C2)n1 (configuration not stated)
1.9%[70.6 µM]	CN(CC[C@H]1CN(C(=O)NC2CCCCC2)CC[C@H]1CC(=O)O)c1ccccc1
-10.7%	CN(Cc1nc(-c2ccccc2)no1)C(=O)c1cccc(C2CCNC2)c1 (configuration not stated)
2.9%	Cc1ccc2cc(CN3CCC4(CC3)CC(O)CCO4)c(=O)[nH]c2c1 (configuration not stated)
-11.7%[70.6 µM]	c1ccc(CN2CCNc3cc(-c4ccoc4)ncc3C2)cc1
0.6%[70.6 µM]	c1ccc(CNC[C@H]2Cn3cc(-c4ccccc4)nc3CO2)cc1
-2.1%	Cc1nc([C@H]2CCN(Cc3ccc(F)c(F)c3)C[C@H]2NC(=O)C2CC2)n[nH]1
?	CC1=C[C@@H](CNCc2ccccc2)[C@H](C(C)C)C[C@H]1Cc1nc2c(C)cccc2[nH]1
0.6%	CCOC(=O)C1(Cc2ccccc2C)CCCN(Cc2cnc(C)s2)C1 (configuration not stated)

Next part, starting with the last 4 of the part before.
NPR1 antag	canonical_smiles
0.6%[70.6 µM]	c1ccc(CNC[C@H]2Cn3cc(-c4ccccc4)nc3CO2)cc1
-2.1%	Cc1nc([C@H]2CCN(Cc3ccc(F)c(F)c3)C[C@H]2NC(=O)C2CC2)n[nH]1
?	CC1=C[C@@H](CNCc2ccccc2)[C@H](C(C)C)C[C@H]1Cc1nc2c(C)cccc2[nH]1
0.6%	CCOC(=O)C1(Cc2ccccc2C)CCCN(Cc2cnc(C)s2)C1 (configuration not stated)
10.1%	CC(C)NC(=O)N1CCC2(CC1)CC(N(C)Cc1ccccc1)CCO2 (configuration not stated)
1.9%	Nc1nc(CCCNC(=O)c2cn(C3CCC(N)CC3)nn2)cs1 (configuration not stated)
-16.1%	CCOc1ccc(NC(=O)c2ccc(Cn3ccn4nc5c(c4c3=O)CCCC5)cc2)cc1
-4.0%	Cc1nc(NCCn2nc(-c3ccccc3)ccc2=O)cc(C2CC(O)C2)n1 (configuration not stated)
-1.7%	CC(C)CN(C1CCOCC1)C1CN(S(=O)(=O)c2ccc(F)cc2)C1
4.5%	NC1(C(=O)NCCC2CCCN(Cc3ccc4occc4c3)C2)CC1 (configuration not stated)
-3.8%	Cc1ccc(C(=O)NC2CCN(c3ccc(F)cc3)C2=O)s1 (configuration not stated)
-0.7%	O=C(c1cnccn1)N1CCN(c2cc(-c3ccc(Cl)cc3)[nH]n2)CC1
-16.8%	Cc1cc(C2CC(C(=O)NCc3ccc4c(c3)OCO4)CN(C(=O)c3ccccc3)C2)ccc1F (configuration not stated)
-1.0%	OC1CN(Cc2ccccc2)CCN(Cc2ccc3[nH]ccc3c2)C1 (configuration not stated)
2.2%	O=C(c1ccc2c(c1)OCO2)N1CCC2(CC1)CN(c1ccncn1)CC2CO (configuration not stated)
?	Cc1nn2c(c1-c1ccccc1Oc1ccccc1)N(C(=O)COc1ccccc1)CCC2
2.5%	CC(C)CC(=O)Nc1ccc2c(c1)CCC(=O)N2CC(C)C
-14.2%[70.6 µM]	CC[C@H]1CN(C(=O)c2ccc(F)cc2)CC[C@H]1CC(=O)Nc1nccs1
0.7%	Cc1ccc(NC(=O)C2CCN(C(=O)c3ncn4c3COC(c3ccc(F)cc3)C4)CC2)cc1C (configuration not stated)
?	Cc1ccc(NC(=O)Nc2ccc(C)n(CC(=O)NC3CCCCC3)c2=O)cc1
-10.6%	CCc1ccc(C(=O)NC2CCN(c3cc(-c4ccc(OC)cc4)[nH]n3)C2)cc1 (configuration not stated)
-1.2%	Cc1oc(-c2cccc(C(F)(F)F)c2)nc1CN(C)Cc1cnn(C)c1
13.6%	Cn1ccnc1CN1C(=O)CO[C@H](c2ccc(NC(=O)c3ccc(C(F)(F)F)cc3)cc2)[C@H]1CO
0.0%	COCCO[C@H]1C(=O)N(C2CCN(C(=O)c3ccncc3)CC2)[C@H]1c1ccncc1
-4.6%	CCOc1ccc(-c2cc3c(=O)n(CCNC(=O)c4cnccn4)ccn3n2)cc1
-24.1%	Cc1ccc(S(=O)(=O)N2CCCC(Cn3c(C4CC4)nc4cccnc43)C2)c(C)c1 (configuration not stated)
6.4%[70.6 µM]	Cc1noc2c(N(C)C)cc(-c3ccccc3)nc12
-1.2%	COc1ccc(CC(=O)N2CC(=O)N(c3ccc(Cl)cc3)CC2C)cc1 (configuration not stated)
-7.7%[70.6 µM]	COc1cccc(-c2ccc3c(n2)CNC(=O)CO3)c1
-3.7%	CN(Cc1cccnc1)C1CN(C(=O)c2cnn(C)c2)C1
-12.6%	CC1(C(=O)NC2CCOCC2)CN(Cc2ccccc2)Cc2ccc(Nc3ccccc3)nc21 (configuration not stated)
-6.2%[70.6 µM]	O=C(Nc1ccc(Cl)cc1Cl)c1ccn2cncc2c1
-4.9%	O=C(Cn1cccc1-c1nc(-c2ccc(F)cc2)no1)NCCc1ccccc1
-0.5%	O=C(NCCc1ccccc1)c1noc(-c2ccc(F)cc2)n1
-1.2%	CCC1CN(Cc2cn(-c3ccccc3)nc2-c2ccc(OC)cc2F)CCO1 (configuration not stated)
-10.1%[70.6 µM]	COCCN1Cc2nc(NCc3ccccc3)ccc2OCC1=O
7.5%	COc1ccc(-c2noc(-c3nc(-c4cc(OC)c(OC)c(OC)c4)no3)n2)cc1
0.5%[70.6 µM]	CCCNC(=O)N[C@@H]1C=C(C(=O)N[C@H](CC(C)C)C(N)=O)C[C@@H](O)[C@@H]1O
10.0%	CC(=O)N1CCC(C2CCN(C(=O)C3CNC3)C2)CC1 (configuration not stated)
-1.8%	CCN1CC2(CCC1=O)CCN(C(=O)[C@@](C)(N)Cc1ccccc1)CC2
4.4%	O=C(c1nc2ncccn2n1)N1CCCn2cc(-c3ccccc3)nc21
1.2%	COC1C(=O)N(C2CCN(C(=O)c3ccnn3C)CC2)C12CCOCC2 (configuration not stated)
-12.0%	O=C(CN1CCCCCC1)N1CC(Oc2ccc(-c3noc(-c4ccccc4)n3)cc2)C1
-0.4%[70.6 µM]	Cc1ccccc1NC(=O)Cc1c[nH]c2ncc(-c3cnn(C)c3)cc12
0.0%	COc1cccc(NC(=O)Cn2c(=O)n(-c3ccc(F)cc3)c(=O)c3c2cc(C)n3C)c1
-18.4%	O=C(c1cccc(OC(F)(F)F)c1)N1CCC(N2CC3CC(C2)[C@H]2CCCC(=O)N2C3)CC1 (some centres not stated)
0.4%	O=C1CCN(C(=O)C2CCCC2)CCCC(c2nc(-c3cccnc3)no2)CCN1 (configuration not stated)
-2.0%[70.6 µM]	CC1(CNc2ccccc2)COc2ccc(C(=O)NCCN3CCOCC3)cc2N1 (configuration not stated)
-3.5%	COc1ccc(Cl)cc1NC(=O)CN1C(=O)NC2(CCOCC2)C1=O
10µM*	O=C(c1ccc(Cl)cc1Cl)N1CCN(c2cc(-c3ccccc3)[nH]n2)CC1
?	CCC(=O)N1CCN(c2nc3c(s2)CC(C(=O)Nc2ccc(F)cc2F)CC3)CC1 (configuration not stated)
-3.3%	CC(C)c1cc(C(=O)N2CCCC(c3ccccc3)(c3ccccc3)C2)n(C)n1
2.7%	CO[C@H]1[C@H](NC(=O)CCOc2ccccc2)c2ccccc2C12CCNCC2
2.9%[70.6 µM]	COCC(=O)NC[C@H]1O[C@@H](CC(=O)N2CCN(c3ccccc3)CC2)[C@H](O)[C@@H]1O
